A488 fluor = compound fluoresces in the A488 spectral region; 59,000 tested, 0.1% active; compound autofluorescence, A488 spectral region, dye equivalency; active compounds read high; max dye equivalency, M; active = above 10 nM dye equivalent; inconclusive = 1 to 10 nM; inactive = 1 nM or less; about half of its hits are not listed in these tables;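 also: highest value over a series up to 38 µM; compound alone in buffer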
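Compound autofluorescence was read in 100 mM Tris pH 8.0 after 15 min at room temperature, ex 480 nm/em 540 nm. Intensities were converted to A488 dye-equivalent concentration using an on-plate six-point A488 standard curve.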
Resorufin fluor = resorufin region autofluorescence; max dye-equivalent concentration, M; 59,000 tested, 0.04% active; Compound fluorescence, resorufin region 547/598 nm, buffer; active compounds read high; active = above 10 nM dye equivalent; inconclusive = 1 to 10 nM; inactive = 1 nM or less; a few of its hits are not listed in these tables; also: highest value over a series up to 38 µM
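Dye-equivalent concentration values derive from comparing each well's 547/598 nm fluorescence against resorufin standards included on every plate. Incubation was 15 min at room temperature in 100 mM Tris, pH 8.0.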
TSHR ag = activates the human thyroid stimulating hormone receptor; P16473; HEK293-CNG-TSHR cells (CNG channel as cAMP sensor), membrane potential dye, cAMP; Potency, µM (series often up to 57.1 µM), for the others: top-dose activation, most hits filed as activators; 73,000 tested, 0.48% active; AID 926; active = well fitted activation curve of enough size with the parental cells flat; inconclusive = any curve in the parental cells; inactive = parental cells flat and receptor cells flat or falling; also: potency is read from the fitted curve at half-maximal effect; % of control where 0% means no effect; weak receptor curves with flat parental cells got no call and are not listed
Target sequence (P16473 whole entry, looked up): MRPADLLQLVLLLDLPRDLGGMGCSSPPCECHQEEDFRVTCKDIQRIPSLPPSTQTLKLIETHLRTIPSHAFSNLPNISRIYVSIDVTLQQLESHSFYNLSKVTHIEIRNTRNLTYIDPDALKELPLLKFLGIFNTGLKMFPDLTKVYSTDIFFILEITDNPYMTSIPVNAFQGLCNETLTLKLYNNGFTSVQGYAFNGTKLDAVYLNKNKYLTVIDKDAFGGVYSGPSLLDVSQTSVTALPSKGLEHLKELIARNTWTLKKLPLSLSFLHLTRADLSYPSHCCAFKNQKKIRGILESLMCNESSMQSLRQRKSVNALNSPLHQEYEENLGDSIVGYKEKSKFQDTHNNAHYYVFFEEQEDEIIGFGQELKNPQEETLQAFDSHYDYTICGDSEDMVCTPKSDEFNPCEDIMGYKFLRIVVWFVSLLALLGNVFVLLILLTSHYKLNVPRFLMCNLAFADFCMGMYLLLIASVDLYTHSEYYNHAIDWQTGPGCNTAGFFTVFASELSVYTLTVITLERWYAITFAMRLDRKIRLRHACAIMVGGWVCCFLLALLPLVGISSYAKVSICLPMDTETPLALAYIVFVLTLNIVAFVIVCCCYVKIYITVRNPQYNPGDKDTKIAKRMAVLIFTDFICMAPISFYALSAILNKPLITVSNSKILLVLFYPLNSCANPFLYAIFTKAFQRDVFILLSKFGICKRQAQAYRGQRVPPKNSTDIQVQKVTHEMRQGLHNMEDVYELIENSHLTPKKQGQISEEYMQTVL
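cAMP rise detected as CNG-channel membrane depolarization by fluorescent dye (emission 590 nm), 30 min after compound, following 60 min dye loading containing 100 uM RO 20-1724 at room temperature. Cells: TSHR/CNG HEK 293, with parental CNG HEK 293 as control.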
A647 autofl = A647 region autofluorescence | Compound fluorescence, A647 channel (570/671 nm), Tris buffer | 59,000 tested, under 10 active | AID 592 | max dye-equivalent concentration, M; active means above 1 µM dye equivalent; inconclusive means 0.1 to 1 µM; inactive means 0.1 µM or less;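 also: values scaled relative to a standard on each plate; highest value over a series up to 38 µM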
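Buffer was dispensed, compounds and Alexa 647 standards were pin-transferred, and plates sat 15 min at room temperature. Intensity at 570/671 nm was then converted to dye-equivalent concentration using the plate's A647 standard curve.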
AID923 = qHTS Assay for Allosteric/Competitive Inhibitors of Caspase-1: Spectroscopic Profiling in AFC Spectral Region; compound fluorescence, AFC spectral region (405/520 nm); almost no hit is shown here; Potency, µM (series often up to 57.5 µM), for inactives: at the highest dose fluorescence increase, usual class: activators; 75,000 tested, 1.1% active; active = well fitted activation curve with a large enough effect; inconclusive = small, poorly fitted or top-dose-only effect;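 also: potency is read from the fitted curve at half-maximal effect; 0% is about no effect; scaled to a free AFC standard on each plate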
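Baseline compound fluorescence (AFC region, 405 nm ex/520 nm em) taken from the intercept of kinetic reads with 50 nM caspase-1 and 5 uM Ac-WEHD-AFC; normalized to an on-plate AFC standard curve; compounds titrated up to 57 uM.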
* marks the source's active call; other numbers are inactive results; i = inactive; ? = inconclusive; . = no result given; [ ] = remark or other dose. An excerpt; rates above refer to the full screens.

molecule	Resorufin fluor	TSHR ag	A647 autofl	AID923	A488 fluor
CC[C@@H]1OC(=O)[C@H](C)[C@H](O[C@@H]2C[C@](C)(OC)[C@H](O)[C@H](C)O2)[C@H](C)[C@H](O[C@@H]2O[C@@H](C)C[C@@H](N(C)C)[C@@H]2O)[C@](C)(O)C[C@H](C)[C@@H]2N[C@H](COCCOC)O[C@H]([C@@H]2C)[C@]1(C)O	i	-11%[25.6 µM]	1.4e-08	1.5%[25.7 µM]	i
O=C1CSC2(CCN(CCCN3c4ccccc4Sc4ccc(Cl)cc43)CC2)N1	i	1%[11.4 µM]	5.1e-08	-2.5%[11.5 µM]	i
CCn1nnnc1SCCSc1nnnn1CC	i	4%	4.3e-08	-0.3%	i
COc1ccccc1CNC(=O)CSc1nc2nc(C)cc(C)n2n1	i	.	1.7e-09	-1.2%	i
CC(OC(=O)c1cccs1)C(=O)NCc1cccs1 (stereo not drawn)	i	-2%	5.5e-09	-1.0%	i
CCn1c(SCC(=O)Nc2cc(C)on2)nnc1-c1ccc(S(=O)(=O)N2CCCC2)cc1	i	-5%	6.1e-08	1.8%	i
CCC(SC1=Nc2ccccc2C2=NC(CC(C)C)C(=O)N12)C(=O)Nc1ccc2c(c1)OCO2 (stereo not drawn)	i	?	1.2e-08	0.4%	i
O=C(Nc1ccccc1C(=O)N1CCCCC1)C1CCCCC1	i	19%	3.3e-08	-0.1%	i
Cc1cccc(Cn2cnc3c(nnn3Cc3ccccc3F)c2=O)c1	i	.	5e-09	0.7%	i
CCOC(=O)N1CCC(N2CCN(S(=O)(=O)CC)CC2)CC1	i	-1%	4.2e-09	-0.8%	i
O=C(c1ccc(Br)cc1)C1CCc2occc2C1=O (stereo not drawn)	i	?	8.5e-09	-0.4%	i
COc1ccccc1C1NC(=O)NC(C)=C1C(C)=O (stereo not drawn)	i	0%	1.1e-08	1.0%	i
O=C1c2ccccc2C(=O)N1CCN1CCOCC1	.	1%	.	-2.8%	.
O=S(=O)(c1ccccc1)N1CCN(C2CCCCCCC2)CC1	i	15%	1.5e-08	-0.3%	i
CCOC(=O)N1CCN(C(=O)COc2cc(=O)n(CC)c3ccccc23)CC1	i	-2%[11.4 µM]	1e-09	0.1%	i
Cc1ccc(S(=O)(=O)N[C@H](C(=O)N2CCC(C(=O)NCC(=O)O)CC2)C(C)C)cc1	i	-3%	6.5e-09	-0.1%	i
CC(=O)c1ccc(N2CCN(C(=O)CCCn3c(=S)[nH]c4cc5c(cc4c3=O)OCO5)CC2)cc1	i	0%	1.4e-09	-1.1%	i
CC(=O)OCC1C2CC[C@H]3C(OCc4ccc(F)cc4C(F)(F)F)OC[C@]4(C)[C@H]3C2=C(CN4C(=O)OC(C)(C)C)[C@H](C)C1COC(C)=O (stereo partly drawn)	.	10%	.	-0.5%	.
O=C(CN1CCN(c2ccccn2)CC1)Nc1cc(C(F)(F)F)ccc1Cl	i	?	2.2e-08	-0.4%	i
COC(=O)c1ccccc1NC(=O)NCc1ccco1	i	9%	6.5e-09	0.0%	i

Part of the list above in order of length of the SMILES, falling:
molecule	Resorufin fluor	TSHR ag	A647 autofl	AID923	A488 fluor
CCn1c(SCC(=O)Nc2cc(C)on2)nnc1-c1ccc(S(=O)(=O)N2CCCC2)cc1	i	-5%	6.1e-08	1.8%	i
Cc1cccc(Cn2cnc3c(nnn3Cc3ccccc3F)c2=O)c1	i	.	5e-09	0.7%	i
O=C(Nc1ccccc1C(=O)N1CCCCC1)C1CCCCC1	i	19%	3.3e-08	-0.1%	i
COc1ccccc1C1NC(=O)NC(C)=C1C(C)=O (stereo not drawn)	i	0%	1.1e-08	1.0%	i

Remaining list, next part:
molecule	Resorufin fluor	TSHR ag	A647 autofl	AID923	A488 fluor
CCOc1ccc(NC(=O)CSc2nnc(-c3ccccn3)n2N)cc1	i	?	3.7e-08	-1.0%	i
Cc1c(C(=O)N2CCOCC2)sc(NC(=O)c2ccc3c(c2)OCO3)c1C#N	i	-12%	1.9e-08	-0.8%	i
COCCOC(=O)C1=C(C)NC(=O)NC1c1c(OC)ncnc1OC (stereo not drawn)	i	-13%	1e-09	2.6%	i
COc1ccc(S(=O)(=O)N2CCn3c2nc2ccccc23)cc1	i	27%	2.6e-08	-1.1%	i
O=C(CSc1nnc2ccccn12)N1CCOCC1	i	1%	1e-09	-1.9%	i
C#CCSc1nsc(SCC#C)c1C#N	i	9%	3.6e-09	0.2%	i
CC(C)(C)NC(=O)c1cc(NC(=O)c2ccco2)cc(NC(=O)c2ccco2)c1	.	-9%	.	-0.9%	.
N#C/C(=C(/O)COC(=O)c1ccc2c(c1)OCCO2)c1nc2ccccc2[nH]1	i	13%	1e-09	1.1%	i
Cc1c(NC(=O)C(C)OC(=O)c2cc3c4ccccc4n(C)c3s2)c(=O)n(-c2ccccc2)n1C (stereo not drawn)	i	5%	6.2e-08	-3.4%	i
Cc1nnc2n(Cc3ccccc3)c(=O)c3c4c(sc3n12)CCCC4	i	7%	2.3e-08	-1.8%	i
Cc1cc(C)c(S(=O)(=O)N(C)CC(=O)NC2CCCC2)c(C)c1	i	9%	2.1e-09	-1.1%	i
CCOC(=O)c1cccc(NC(=O)CSc2nnc(COc3ccccc3C)o2)c1	i	8%	4.4e-09	-1.5%	i
Cn1c(=O)oc2cc(S(=O)(=O)N3CCN(c4ccccn4)CC3)ccc21	.	0%	.	1.5%	.
CC(C)C1CC(c2csc(N)n2)CCO1 (stereo not drawn)	i	4%	1e-09	-0.5%	i
COc1ccc(N(CC(=O)N2CCCCC2)S(=O)(=O)c2c(C)nn(C)c2C)cc1	.	-5%	.	0.7%	.
COc1cc(Cn2c(C(=O)O)cc3sccc32)cc(OC)c1OC	i	5%	1.2e-09	1.4%	i
Cc1ccc(CNc2ccc(N3CCOCC3)c(C(=O)O)c2)s1	i	0%	1e-09	1.7%	i
Cc1ccc(CN(Cc2cc3cc(C)ccc3[nH]c2=O)C(=O)N2CCOCC2)cc1	i	16%	2.6e-09	0.9%	i
COc1cc(C(c2nnnn2C2CCCC2)N2CCN(C)CC2)cc(OC)c1OC (stereo not drawn)	i	-1%	1.3e-08	-2.7%	i
O=C(Nc1ccccc1Oc1ccccc1)c1cnccn1	i	?	3.3e-08	-0.7%	i

(list continues)
molecule	Resorufin fluor	TSHR ag	A647 autofl	AID923	A488 fluor
CN(C)Cc1ccccc1-c1cncnc1Nc1ccc(F)cc1	i	9%	1e-09	0.5%	i
O=c1nc(N2CCOCC2)nc2n1CCO2	i	2%	2.3e-08	-0.5%	i
O=C(COC(=O)CCc1c[nH]c(=O)[nH]1)Nc1ccccc1Cl	i	-1%	4.4e-08	5.1%	i
CC(=O)c1cc2c(cc1NC(=O)c1cc(C)nn1-c1ccccc1)OCO2	.	?	.	9.5%	.
CC(=O)NC1N=C(C)N(c2ccccc2)C1=O (stereo not drawn)	i	-5%	1.1e-08	0.4%	i
CC(C)NC(=O)N1CCCC2(CCN(C(=O)c3ccco3)CC2)C1	i	8%	7.5e-09	0.8%	i
CCCCn1c(C)nc2c(=O)n(C)c(=O)[nH]c21	i	2%	6.5e-09	-0.9%	i
COc1ccc(C2CC(=O)C(C=NCCN3CCN(C(C)=O)CC3)=C(O)C2)cc1OC (stereo not drawn)	.	7%	.	-1.0%	.
CCC(CC)c1nnc(NS(=O)(=O)Cc2ccccc2)s1	i	-1%	5e-09	-0.8%	i
COC1(OC)N=C(N)C2(C#N)C(c3ccc(F)cc3)C12C#N (stereo not drawn)	i	?	2.4e-08	2.6%	i
COc1ccc(Cc2noc(-c3ccc(C)cc3)n2)cc1	.	-4%	.	1.9%	.
O=c1cc(CSc2ccc(S(=O)(=O)N3CCCCC3)cn2)nc2sccn12	i	9%	5.7e-09	0.0%	i
N#CC(C(=O)C1CCCCC1)c1nc2ccccc2[nH]1 (stereo not drawn)	i	-5%	1e-09	-0.2%	i
Cc1cc(C2C(=O)C(C(=O)c3ccc(Cl)cc3)C(=O)CC2(C)C)on1 (stereo not drawn)	i	2%	2e-08	-0.3%	i
C[C@@H]1C=CCC(=O)OC[C@H](C)C(=O)OC[C@H]2O[C@H]1C=C[C@@H]2O	.	8%[11.4 µM]	.	-3.6%[11.5 µM]	.
Cc1cc(S(=O)(=O)Nc2c(C(=O)O)[nH]c3ccccc23)ccc1F	i	1%	2.3e-09	-2.5%	i
CC1(C)NC(=O)N(CCCCOc2cccc(C(F)(F)F)c2)C1=O	i	13%	5.3e-09	-2.0%	i
Cc1oc2c(CN3CCCC3)c(O)ccc2c(=O)c1Oc1ccccc1Br	i	9%	1e-09	16%	i
O=C(Nc1ccon1)C1CCN(S(=O)(=O)c2cccs2)CC1	i	4%	1e-09	-1.6%	i
Cc1cnc(CNc2ncncc2-c2ccccc2C(F)(F)F)cn1	i	14%	1.2e-08	-0.2%	i

The results go on:
molecule	Resorufin fluor	TSHR ag	A647 autofl	AID923	A488 fluor
CCOC(=O)C1=C(C)NC(=O)NC1c1ccc(NC(C)=O)cc1 (stereo not drawn)	i	-1%	1.5e-08	0.6%	i
O=C(CCSc1nnc2scc(-c3ccccc3)n12)Nc1nc(-c2ccccc2)ns1	i	.	2.9e-08	0.0%	i
Clc1ccccc1CSc1nnc(-c2cccnc2)n1Cc1ccco1	i	.	2.2e-09	0.2%	i
CC(C)C(=O)NC(C)C(c1cccs1)N1CCN(C)CC1 (stereo not drawn)	i	.	2.6e-08	-0.1%	i
COc1ccc(OC)c(C2CC(=O)c3c([nH]c(C(=O)OCC4CCCO4)c3C)C2)c1 (stereo not drawn)	.	12%	.	0.3%	.
CCCN1CN(Cc2ccccc2)CC2=C1CC(C)(C)CC2=O	i	15%	8.8e-09	-0.4%	i
CCC(=O)Nc1nnc(Sc2ccc(N(C)C)cc2)s1	.	10%	.	-1.1%	.
CCN(CC)c1ccc(-n2c(C)c(C(C)=O)c(C(C)=O)c2C)cc1	i	?	1.4e-09	-1.6%	i
CCOc1ccc(Cl)cc1CSc1n[nH]c(CC)n1	i	.	6.8e-09	-2.0%	i
Cc1ccccc1N1CCN(S(=O)(=O)C[C@@]23CC[C@H](C[C@H]2NC(=O)[C@@H](N)CCS(C)(=O)=O)C3(C)C)CC1	i	?	1.1e-08	0.2%	i
CSc1nc(NC(C)(C)C)nc(Oc2ccc(=O)[nH]n2)n1	i	25µM*	1e-09	0.1%	i
COc1ccc2ccccc2c1/C=N/O	i	17%[11.4 µM]	1.9e-09	-0.7%	i
CCOc1c(C)cc(-c2ncccc2O)cc1C	i	-25%	1.9e-08	-0.5%	i
CCC(=O)c1ccccc1OCCCn1cncn1	i	?	1e-09	1.3%	i
CN(C)C(=O)NC1CCCCCCCCCCC1	.	8%	.	0.6%	.
COc1ccccc1NC(=O)CSc1nc(O)cc(=O)n1-c1ccccc1OC	.	-3%	.	-1.3%	.
Cc1nc2c(o1)CCc1ccccc1C2O (stereo not drawn)	i	.	2e-08	.	i
Cc1cccc(NC(=O)c2cnc3sccn3c2=O)c1C	.	0%	.	1.0%	.
CCCCN1CCCC[C@H]1C(=O)Nc1c(C)cccc1C	i	?	1.7e-08	-0.9%[25.7 µM]	i

Assay outcomes (PubChem)
